gsp ag: agonists of gsp mutant (McCune-Albright syndrome). gsp mutant cells, cAMP HTRF, 30 min; control for the full effect not named in the record. Potency, µM (doses to about 76.9 µM), for inactives: top-dose activation (cAMP increase), most hits filed as activators. actives 0.13% (n = 340,000); active = well fitted activation curve with a large enough effect; inconclusive = small, poorly fitted or top-dose-only effect, or another doubt; inactive = no such curve, though single readings can be large or run the other way; cell line not stated here;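 note: phosphodiesterase inhibitor Ro 20-1724 added with compounds to block cAMP breakdown; potency is the fitted concentration of half-maximal effect; nearly all actives have a fitted effect of over 60% in size; about a fifth of the inactives were tested at one dose only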
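Cells stably selected in G418 were plated at 2000/well, grown 16-24 hr, then given compounds in DMSO with the PDE inhibitor […] (300 uM solution added) for 30 min at 37C; cAMP was read by HTRF.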
Sfp PPTase inh: blocks B. subtilis Sfp PPTase activity. Potency, µM, for the others: max response, negative = inhibition, usual class: inhibitors. Q9F4F7. actives 3.5% (n = 310,000). Biochemical Sfp PPTase activity, qHTS; active = well fitted inhibition curve with a large enough effect; inconclusive = small, poorly fitted or top-dose-only effect, or another doubt; inactive = no such curve, though single readings can be large or run the other way;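 note: the enzyme is Sfp with the accession as filed and its product quenches rhodamine fluorescence; potency is the fitted concentration of half-maximal effect; 0% = enzyme reaction without inhibitor and -100% = no enzyme wells; top concentration of the series not given in the record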
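Buffer: 50 mM Hepes-Na pH 7.6, 10 mM MgCl2, 0.01% Nonidet P-40, 0.01% BSA. Enzyme 15 nM, pre-exposed to compound 15 min; substrates then added and fluorescence change tracked over 30 min.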
PINK1 modulator: changes PINK1 expression; Potency, µM (highest dose often 76.6 µM), for the others: top-dose activation (PINK1 increase), most hits filed as activators; actives 0.2% (n = 410,000); AID 624263; PINK1 immunofluorescence, high-content cytometry, 24 h; active = well fitted activation curve with a large enough effect; inconclusive = small, poorly fitted or top-dose-only effect; inactive = flat fitted curve, though single readings scatter; cell line not stated here;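 note: potency is the fitted concentration of half-maximal effect; % of control where 0% means no effect; nearly all actives have a fitted effect of over 65% in size; a mitochondrial uncoupler was the plate control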
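Fluorescence from anti-PINK1 antibody, together with nuclear and cell stains, was scanned on a laser-scanning cytometer. Before staining, stable-line cells were incubated 24 hours with compounds at 5 concentrations; primary antibody 12 h at 10 degrees C.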
ClpP mod: qHTS Assay for Activators of ClpP; ATP-dependent Clp protease proteolytic subunit (Bacillus subtilis (strain 168)), P80244; purified B. subtilis ClpP, FRET peptide cleavage, 20 min; Potency, µM (titrated, usually from 57.5 µM), inactives show at the top dose activity change, negative = active; actives 1.9% (n = 340,000); AID 651965, 2013; active = well fitted falling curve with a large enough effect; inconclusive = small, poorly fitted or top-dose-only effect; inactive = no such curve, though single readings can be large or run the other way; note: potency is the fitted concentration of half-maximal effect; the source files actives as falling curves though it sought activators and does not explain the sign; nearly all actives have a fitted effect of over 65% in size; many hits overshoot -100%
Target sequence (P80244 whole entry, looked up): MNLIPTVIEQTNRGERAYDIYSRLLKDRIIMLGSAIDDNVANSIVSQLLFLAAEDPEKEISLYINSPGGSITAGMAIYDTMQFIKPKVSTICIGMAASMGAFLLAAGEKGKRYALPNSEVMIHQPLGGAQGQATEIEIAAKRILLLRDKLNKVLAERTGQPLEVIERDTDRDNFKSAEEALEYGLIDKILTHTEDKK
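Buffer: 100 mM Tris/HCl pH8, 100 mM KCl, 0.05% low protease BSA, 2.5% glycerol, 0.01% Tween-20. ClpP 10 microg/mL final; 20 min RT; delta FRET normalized to ADEP and DMSO controls.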
Menin-MLL FL inh: menin-MLL binding inhibition, fluorescein peptide | 290,000 tested, under 10 active | FP activity change, % at 61.4 µM | Fluorescence polarization, fluorescein-MLL peptide displacement from menin; inconclusive = falling polarisation curve, or a change in total fluorescence; inactive = total fluorescence flat and polarisation flat or rising; no compound was filed as active; the % refers to the polarisation; negative = inhibition;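 note: % of control where 0% means no effect; inhibitors lower the polarisation; unlabelled MLL peptide was the positive control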
gsp antag: antagonists of gsp mutant (McCune-Albright syndrome). gsp-mutant cells, cAMP HTRF, 30 min; control for the full effect not named in the record. Potency, µM (series often up to 76.9 µM), for inactives: at the top dose activity change, negative = inhibition, most hits filed as inhibitors. actives 0.4% (n = 340,000); active = falling curve of any shape with a large fitted effect; inconclusive = falling curve, mostly with a smaller effect; inactive = flat or rising curve; cell line not stated here;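 note: intracellular cAMP measured with PDE inhibitor Ro 20-1724 present during compound exposure; potency is the fitted concentration of half-maximal effect; % is set by controls: 0 for no effect and ±100 for the full control effect; nearly all actives have a fitted effect of over 65% in size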
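Cells, 2000/well, grown 16–24 h in DMEM 10% FBS with 0.5 mg/ml G418, then compounds plus […] (300 uM addition stock), 30 min at 37C. cAMP read by HTRF (cAMP-d2 and anti-cAMP antibody-K in lysis buffer) after 30 min RT.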
D2 agonist: human D2 receptor agonism in beta-arrestin assay; actives 0.084% (n = 360,000); P14416; activation, % (no concentration beside the values); DiscoveRx PathHunter D2 beta-arrestin, luminescence, 90 min; 100% = 57 uM dopamine signal; in the data active = activation above about 40%; inconclusive = about 15% to 40%; inactive = below about 15%; note: compound concentration not given in the record; the text of the record calls up to 30% inactive
Target sequence (P14416 whole entry, looked up): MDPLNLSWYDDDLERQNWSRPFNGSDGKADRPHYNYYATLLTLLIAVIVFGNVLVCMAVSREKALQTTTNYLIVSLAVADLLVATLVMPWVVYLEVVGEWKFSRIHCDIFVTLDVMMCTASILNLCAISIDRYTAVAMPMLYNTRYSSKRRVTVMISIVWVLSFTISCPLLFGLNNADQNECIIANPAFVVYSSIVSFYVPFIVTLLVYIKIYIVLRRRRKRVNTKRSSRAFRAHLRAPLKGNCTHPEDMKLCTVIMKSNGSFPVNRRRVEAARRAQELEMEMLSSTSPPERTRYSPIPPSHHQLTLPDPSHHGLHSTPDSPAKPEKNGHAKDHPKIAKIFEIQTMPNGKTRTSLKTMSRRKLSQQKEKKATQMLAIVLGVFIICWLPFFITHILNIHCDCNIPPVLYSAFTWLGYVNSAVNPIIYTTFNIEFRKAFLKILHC
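Agonist mode: compounds alone added to overnight-plated D2 PathHunter cells for 90 min at 37 C, with 57 uM final dopamine (EC100) defining full response. Beta-arrestin recruitment detected by chemiluminescent reagent, read after 1 h at ambient temperature.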
The depositor's hits bear a star; u = inconclusive; x = not tested or not shown; [ ] = dose if it differs, or a comment.

SMILES	gsp ag	Sfp PPTase inh	PINK1 modulator	ClpP mod	Menin-MLL FL inh	gsp antag	D2 agonist
COc1ccc([C@@H]2[C@@H]3C(=O)N(C(C)(C)C)C(=O)[C@@H]3[C@]3(Cc4ccccc4)C(=O)N(c4cccc(F)c4)C(=O)N23)cc1	u	x	1.2%	2.2%	x	-1%	-1.9
Cc1ccc(CCNC(=O)C2CCN(S(=O)(=O)N3CCCCC3)CC2)cc1	-67%[inhibitor]	1%	-1.5%	-2.8%	x	13%	-0.7
COc1ccc(NC(=O)Nc2ccc3c(c2)CC(=O)N([C@H](C)CO)C[C@@H](C)[C@H](CN(C)C(=O)Nc2ccccc2)O3)cc1	0%	x	-0.6%	-3.3%	x	6%	3.3
C#CCOc1ccc(C2C3=C(CC(C)(C)CC3=O)N(CC(=O)O)C3=C2C(=O)CC(C)(C)C3)cc1	19%	17%	2.9%	3.9%	-4.6	5%	-4.2
C=CCNc1nc(Cl)nc(Nc2ccc(OCC)cc2)n1	-9%	2%	0.0%	-0.1%	0.7	7%	-3.4
Cc1nn(Cc2ccccc2)c(C)c1NC(=O)CSc1nc2c(c(C(F)(F)F)n1)CCc1ccccc1-2	13%	u	1.3%	0.4%	1.1	-6%	5.3
CSCc1c(C(=O)Nc2ccc(N3CCOCC3)cc2)oc2ccccc12	-19%	1%	0.9%	14%	1.2	-10%	-2.4
CCOC(=O)CSc1nc(-c2ccccc2)nc2ccc(C)cc12	2%	1%	-0.6%	u	-8.4	1%	-5.3
CCOc1ccc(OCCC(=O)OCC(=O)c2c(N)n(CC(C)C)c(=O)n(C)c2=O)cc1	-23%	x	2.0%	1.3%	x	x	-3.2
O=C1NC2(CCCCCC2)Oc2ccccc21	-2%	11%	0.7%	-4.6%	0.3	-1%	-0.2
CCN(CC)C(=O)CSc1nnc(-c2ccccn2)n1-c1ccccc1OC	u	0%	-1.6%	-0.7%	-1.2	7%	-0.2
O=C(Nc1ccnn1C1CCN(C2CCC2)CC1)c1ccccc1	-49%[inhibitor]	9%	-1.9%	-2.8%	-8.6	8%	-3.1
COC(=O)CCC(=O)N1CCCC(N2CCN(c3cccc(C(F)(F)F)c3)CC2)C1 (stereo not drawn)	-31%[15.4 µM]	16%	-0.5%	-15%	0.0	6%	-5.0
COc1ccc(NC(=S)NCCc2ccc(Cl)cc2)c(OC)c1	-47%[inhibitor]	12%	-0.3%	-0.3%	6.6	5%	-3.3
CCNC(=S)NS(=O)(=O)c1ccc(Cl)cc1	-7%	-6%	-0.3%	1.3%	3.0	1%	-7.5
COCCCNC(=O)c1ccc(Cn2c(=O)c3ccccc3n(Cc3cc(C)ccc3C)c2=O)cc1	0%	-5%	0.0%	0.5%	0.7	12%	-3.8
O=C(COC(=O)c1ccco1)c1ccc(S(=O)(=O)N2CCCCC2)cc1	1%	4%	1.5%	0.5%	x	0%	-12
CCCC(C(=O)NC1CCCC1)N(CC1CCCO1)C(=O)c1snc(C(N)=O)c1N (stereo not drawn)	u	5%	-3.4%[38.3 µM]	u	2.1	5%	-0.1
Cc1nn(C)c(N)c1C(O)(c1nccn1C)C(F)(F)F (stereo not drawn)	-24%	11%	0.6%	-0.2%	-1.4	-1%	-0.9
O=C(NNC(=S)NC(=O)c1cccnc1)c1ccc(Cl)cc1	-18%	1%	5.1%	-0.2%	4.2	1%	-2.6
O=C(c1cc(COc2ccc3ncccc3c2)on1)N1CCCCCC1	4%	13%	-0.2%	-4.4%	5.2	u	1.2
O=C(NCC(=O)N1CCN(Cc2ccccc2)CC1)c1ccccc1Cl	-3%	x	-0.2%	0.4%	x	x	0.0
CCOc1ncccc1C(=O)OCC(=O)Nc1cc(C)ccc1C	8%	9%	5.2%[38.3 µM]	-2.3%	-3.4	-14%	-2.1
O=C1CC2(CCN(C(=O)c3ccccc3[N+](=O)[O-])CC2)Oc2ccccc21	u	x	1.2%	u	x	2%	3.4
O=C(Nc1sccc1C(=O)N1CCOCC1)c1cccnc1	7%	u	-2.2%[38.3 µM]	-0.9%	1.2	2%	0.2
COc1ccc(CCC(=O)OCC(=O)c2c(N)n(CC(C)C)c(=O)n(C)c2=O)cc1	3%	5%	-0.6%	-2.3%	x	-22%	6.1
COc1ccc(CCN(Cc2ccccn2)C(=S)Nc2ccccc2Cl)cc1OC	11%[15.4 µM]	6%	1.4%	x	-1.0	-31%	-0.4
Cc1ccc2[nH]c(=O)cc(C(=O)OCC(=O)c3ccccc3)c2c1	2%	-7%	1.9%	6.7%	0.6	12%	-1.7
CCCc1c(C)[nH]c2ccc(NC(C)=O)cc2c1=O	-35%	0%	-1.0%[38.3 µM]	u	7.0	-1%	-0.7
O=C(CN(C(=O)CSc1nc2ccccc2o1)c1ccccc1F)NC1CCCCC1	-27%	15%	0.7%	-3.8%	-0.4	-9%	0.1
O=C(NCc1ccccc1Cl)C1CCN(S(=O)(=O)c2cccs2)CC1	-1%[15.4 µM]	-1%	-0.6%	x	-11	1%	-2.9
COCCN1C(=O)C(O)=C(C(C)=O)C1c1ccc(F)cc1 (stereo not drawn)	7%	-28%	-0.2%	-5.6%	-5.3	4%	0.8
Cc1cc(N(CC(=O)NC(C)C)S(C)(=O)=O)ccc1Br	-16%	-18%	-1.7%	1.2%	3.9	12%	-4.4
CCCN1C2CCCC1CC(NC(=O)c1ccccc1OCC)C2 (stereo not drawn)	44%	19%	4.8%	0.6%	0.1	4%	-2.0
COc1ccc(-c2nnc3n(CCc4ccccc4)c(=O)c4ccccc4n23)c(OC)c1	25%	1%	9.5%	23%	1.6	-11%	0.8
O=C(Nc1nncs1)C12CC3CC(CC(C3)C1)C2	-9%	14%	1.1%	x	2.4	-3%	2.2
CN1CCN(CCC(=O)N/N=C/c2cc3c(cc2[N+](=O)[O-])OCO3)CC1	-3%[15.4 µM]	-6%	0.6%	-1.1%	-4.0	1%	-5.0
C[C@H]1CN([C@@H](C)CO)C(=O)CCCn2cc(nn2)CO[C@@H]1CN(C)C(=O)Nc1ccc(-c2cccs2)cc1	x	x	0.8%	-27%	x	x	-4.9
COc1ccccc1OCc1ccc(C(=O)NC(C)c2ccccc2)o1 (stereo not drawn)	-1%	0%	0.9%	x	-4.4	-1%	2.6
O=C(CCn1nc(-c2ccccc2)c2ccccc2c1=O)NCC1CCCO1 (stereo not drawn)	11%	1%	-0.8%	-0.6%	3.4	13%	-2.9
COc1cc(C(=O)OC(C)C(=O)NC2CCCCC2C)c([N+](=O)[O-])cc1OC (stereo not drawn)	2%	x	2.5%	u	x	0%	-0.5
CCCc1nnc(NC(=O)C(CC)OC(=O)c2cc(C)nc3ccccc23)s1 (stereo not drawn)	-48%[inhibitor]	-4%	-1.5%	-1.7%	0.4	u	1.1
O=[N+]([O-])c1ccc2[nH]c(O)c(N=NC(=S)NCC3CCCO3)c2c1 (stereo not drawn)	-1%[15.4 µM]	-1%	7.9%	-1.4%	5.5	-2%	-3.3
COc1ccc(NC(=S)NCc2ccc(F)cc2)c(OC)c1	-7%	20%	-2.3%	-0.3%	1.4	1%	-1.4
CCN(CC)CCNC(=O)/C(=C\c1cccn1C)NC(=O)c1cccs1	-9%	7%	15%	-0.9%	0.9	3%	-0.1
O=C(COc1ncnc2c(Cl)cc(Cl)cc12)N1CCCCC1	6%	26%	-0.3%[38.3 µM]	-4.4%	-2.5	3%	-2.8
O=C(CNC(=O)c1ccc(Cl)cc1)Nc1ccccc1C(F)(F)F	8%	18%	3.7%	0.3%	0.1	6%	-1.4
CCCCC(NC(=O)Cc1c(C)c2cc3c4c(oc3c(C)c2oc1=O)CCCC4)C(=O)O (stereo not drawn)	29%	-2%	1.9%	-21%	0.3	-8%	-5.9
Cc1cc(S(=O)(=O)N2CCOCC2)ccc1OCC(=O)Nc1ccc(F)cc1F	13%[15.4 µM]	4%	21%	0.1%	-2.9	-11%	-6.4
N#C/C(=C(/O)c1ccc2c(c1)OCO2)c1nc2cc(C(F)(F)F)ccc2s1	-3%	-27%	14µM*	x	-0.6	35µM*	-3.2
COc1ccc(C/C(C)=N/NC(=O)c2cccnc2)cc1	-24%	-15%	5.8%	1.3%	4.5	8%	-7.8
Cc1onc(-c2ccccc2)c1C(=O)N1CCCCCC1	18%	17%	-0.8%	-0.6%	x	3%	0.6
CC(NC(=O)c1ccco1)C(=O)OCC(=O)N1CCCCCC1 (stereo not drawn)	0%	x	-0.4%	-1.0%	x	-8%	3.0
COc1ccc(NC(=O)N2CC3(CCN(C(C)=O)CC3)C2)cc1	x	6%	0.8%	x	-9.5	x	x
CCCn1c(N)c(N(CCOC)C(=O)COC(=O)c2ccccc2NCCO)c(=O)[nH]c1=O	5%	x	1.7%	u	x	9%	-6.5
Cn1cc(S(=O)(=O)N2CCc3ccccc32)cc1C(=O)NC(C)(C)C	-13%	9%	3.2%	1.3%	0.2	-9%	8.6
CCOC(=O)C1CCCN(c2c(NCCCN(CC)c3ccccc3)c(=O)c2=O)C1 (stereo not drawn)	-47%[inhibitor]	3%	6.0%[38.3 µM]	-0.5%	2.4	-8%	-3.7
O=c1[nH]c2nc(Cl)nc(Cl)c2[nH]1	2%	x	-0.4%	x	x	7%	0.1
C[C@H](NC(=O)c1nc[nH]c1C(=O)N[C@@H](C)c1ccccc1)c1ccccc1	x	x	4.7%	-1.7%	x	3%	-2.5
COc1ccc(CC(=O)Nc2c(C(=O)N3CCN(c4ncccn4)CC3)oc3ccccc23)cc1	14%	5%	0.3%	-15%	-3.2	-17%	-3.1
CCOC(=O)C1CCCN(c2c(NCCCN(C)Cc3ccccc3)c(=O)c2=O)C1 (stereo not drawn)	0%	2%	4.3%[38.3 µM]	-2.5%	-21	3%	2.4

Screening results: PubChem, National Center for Advancing Translational Sciences (NCATS)
